Assay outcomes deposited in PubChem BioAssay by Broad Institute.
Tgondii IFNg = T. gondii growth inhibition under IFN-gamma; Toxoplasma gondii growth in IFN-gamma-treated host cells; hits give low values; reference of the scale not given here; AID 1259416; activity change, negative = inhibition, %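 (about 20 µM by stock and volumes)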; 3.8% of 69,000 active;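 active = below -70%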;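 note: host cells are HeLa cells infected with Toxoplasma gondii; parasite growth read as luciferase light; one replicate is shown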
An asterisk follows results filed as active; i = inactive; & = joins results of further samples.

SMILES	Tgondii IFNg
O=C(c1cccs1)N1CCN(CC2CC2)c2ncccc2C1	-16.0
Cc1cc(C)c(S(=O)(=O)N2CCC3(CC2)Nc2cc(F)ccc2-n2cccc23)c(C)c1	28.2
CC(NC(=O)c1nc(Nc2ccccc2)c2ccccc2n1)c1ccccc1 (stereo not given)	-40.2
CN1CCN(C(CNS(=O)(=O)C2CCS(=O)(=O)C2)c2ccc(F)cc2)CC1 (stereo not given)	10.1
COCC(=O)N1CCC2(CC1)CC(OCC1CCOCC1)CO2 (stereo not given)	6.3
C[C@H](CO)N1C[C@H](C)[C@H](CN(C)S(=O)(=O)c2ccc(Cl)cc2)Oc2c(NC(=O)Nc3ccc(F)cc3)cccc2C1=O	-81.3*
O=C(Nc1ccc2c(c1)OCO2)N1CCC2(CC1)Nc1ccccc1-n1cccc12	i
CCOC(=O)N1CCC(N2CCCC(C(=O)c3ccc4c5c(cccc35)CC4)C2)CC1 (stereo not given)	-41.3
Cn1cnc(S(=O)(=O)N2C[C@H](O)COC[C@@H]3O[C@H](CC(=O)NCc4cccc(F)c4)CC[C@H]32)c1	11.5
CCCc1cnc(NCCNCC(O)COc2ccccc2)nc1 (stereo not given)	-5.9
Cn1cc(C[C@@H]2[C@H](N3CCOCC3)CCN2C(=O)c2ccco2)cn1	22.3
Cc1cccc(NC(=O)N2CCC(c3nc(C(=O)N4CCCC4)c(C)o3)CC2)c1C	-21.7
Cc1ccccc1C(=O)N1CCC2(CC1)Nc1cc(F)ccc1-n1cccc12	66.6
Cc1ccc(NC(=O)CN2C(=O)CCc3cc(Br)ccc32)c(C)c1	30.5
CCOc1ccc(C2c3[nH]c4ccccc4c3CCN2C(=O)COC)cc1 (stereo not given)	i
CC(=O)N1Cc2ccnn2CC(C(=O)Nc2nc(C)cs2)C1 (stereo not given)	105.4
CN1c2ccc(-c3cccc(C#N)c3)cc2[C@@H]2[C@@H](CCN2C(=O)Cc2ccccn2)[C@@H]1CO	-54.4
O=C(NCC(c1cccnc1)N1CCOCC1)c1c(O)cccc1O (stereo not given)	8.2
COc1ccc(C(=O)Oc2cc(C)c(Cl)cc2C(C)C)cc1	-18.6
CC(C)(C)c1nnc(NC(=O)NCc2cccnc2)s1	3.6
CC(=O)C1=C(NC(=O)c2ccc(C(F)(F)F)cc2)C[C@@H]2[C@H]1C2(C)C	-8.5
CCCCNC(=O)Cn1c(-c2ccc(OC)cc2)noc1=O	-20.8
O=C(CCC1CCCC1)N1CCC2(CC1)Nc1ccccc1-n1cccc12	-6.1
CCCc1nnc(NC(=O)C2CC(=O)N(CCc3c[nH]c4ccc(Cl)cc34)C2)s1 (stereo not given)	-91.5*
Cc1cccnc1[C@H](C)NC(=O)c1cccc(CC2CCNCC2)c1	12.0
Cc1noc(-c2ccnc(N3CCC4(CCNCC4)C3)c2)n1	23.6
Cc1nc(C)c(C(=O)N2CCCC3(CC2)CNC(=O)O3)s1 (stereo not given)	7.7
Cc1ccc(-c2cc(-c3ccccc3)nc(-c3ccccc3)c2)cc1	-68.9
Cc1ccc(-c2coc(-c3ccc(NC(=O)c4ccc(Br)o4)cc3)n2)cc1	17.4
CC(C)CN1C(=O)CO[C@H]2CN(C(=O)COc3ccccc3)C[C@@H]21	-40.5
C=CCNC(=O)[C@@H]1CCCC[C@@H]1C(=O)N1CCN(CCC)CC1	-4.7
C[C@H]1CN([C@@H](C)CO)C(=O)c2ccccc2-c2ccccc2CO[C@@H]1CN(C)C(=O)Nc1ccc(-c2ccccc2)cc1	-64.5
COc1ccc(N(C(=O)c2ccc(NC(C)=O)cc2)C2(C(=O)NCc3ccccc3)CCN(C(C)=O)CC2)cc1	57.9
COC(=O)c1sccc1N(C)S(C)(=O)=O	9.7
Cc1nn(CC(=O)NCCCN2CCCCC2)c(=O)c2nc(-c3ccccc3)sc12	-6.7
CN(Cc1cc(-c2ccccc2)on1)C(=O)c1ccc(=O)n(C)c1	1.0
COc1cc(CN2C[C@@H]3N[C@H](C2)C3c2ccc(-c3ccc(C#N)cc3)cc2)cc(OC)c1 (stereo not given in full)	-68.1&-49.9
Nc1cccc(C(=O)O)c1	2.7
COCCC(=O)N1CC[C@]2(CCC[C@@H](CNc3ccccn3)O2)C1	-48.8
CC(=O)N1CCOCC2(CN(Cc3nccs3)CCO2)C1 (stereo not given)	-1.8

Compounds above with a cyano group, in the order listed:
SMILES	Tgondii IFNg
CN1c2ccc(-c3cccc(C#N)c3)cc2[C@@H]2[C@@H](CCN2C(=O)Cc2ccccn2)[C@@H]1CO	-54.4
COc1cc(CN2C[C@@H]3N[C@H](C2)C3c2ccc(-c3ccc(C#N)cc3)cc2)cc(OC)c1 (stereo not given in full)	-68.1&-49.9

The list goes on:
SMILES	Tgondii IFNg
c1ccc2c(c1)COC(c1ccsc1)N2 (stereo not given)	65.7
COCCN1C(=O)N(Cc2cccc3ccccc23)C(=O)C12CCN(Cc1ccsc1)CC2	-65.5
Cc1ccc(CN(CCc2nc3ccccc3[nH]2)C(=O)Nc2ccccc2C)cc1	14.7
CC1CCN(CC2(NC(=O)c3ccc(-n4cnnc4)cc3)CCCCC2)CC1	8.7
Cc1ccc(C2(O)CCN(C(=O)C3CCCN(CC(N)=O)C3)CC2)nc1 (stereo not given)	16.0
CO[C@H]1CC[C@H]2CCOc3c(C#N)cccc3C(=O)N(C)C[C@H](c3ccccc3)CC(=O)N(C)C[C@@H]1O2	-16.1
CCn1nc(NC(=O)Cc2coc3cc(C)ccc23)cc1C	37.0
Cc1ccccc1S(=O)(=O)N1C[C@@H]2COC[C@@]2(CN(C)C)C1	-0.9
CN(C)CC(=O)N[C@@H]1CC[C@H](CCNC(=O)C2CCC2)O[C@H]1CO	36.8
COc1ccc(-c2nnc(N(C)C(=O)c3ccccc3OC)s2)cc1	63.6
CC(Oc1ccccc1)C(=O)Nc1cc(C2=CCCN(C)C2)nn1C (stereo not given)	-10.8
COc1ccccc1CN1CCc2cnn(C)c2C1COCC1CC1 (stereo not given)	3.7
Cc1ncc2c(c1O)C(C1C(=O)N(c3ccc(F)cc3)N=C1c1ccccc1)OC2 (stereo not given)	i
CCOC(=O)c1cnc2c(c(C)nn2C)c1Sc1nnc(SC)s1	0.8
CCCNC(=O)N1C[C@H](C)[C@@H](OC)CN(C)C(=O)c2ccc(NC(=O)CC)cc2OC[C@H]1C	-19.4
Cn1c(CCNC(=O)C2CC3(CCNCC3)CN2)nc2ccccc21 (stereo not given)	6.6
COc1ccccc1NC(=O)COc1ccc2oc3c(c2c1)CCCC3	2.4
CC(C)(C)c1csc(Cn2cc(C3CC=CCC3)nn2)n1 (stereo not given)	-41.5
COc1ccc(N2CCN(C(=O)Cn3ncc4c(N5CCC(C)CC5)ncnc43)CC2)cc1	259.5
CO[C@@H]1CCN(S(=O)(=O)N(C)C)C[C@@H]1Cc1cccc(C)c1	-33.2

Another view of some results above:
mol,Tgondii IFNg
Cn1c(CCNC(=O)C2CC3(CCNCC3)CN2)nc2ccccc21 (stereo not given),6.6
COc1ccccc1NC(=O)COc1ccc2oc3c(c2c1)CCCC3,2.4
CC(C)(C)c1csc(Cn2cc(C3CC=CCC3)nn2)n1 (stereo not given),-41.5

Additional structures
SMILES	Tgondii IFNg
COc1ccc(NC(=O)C(=O)NCCc2sc(-c3cccc(F)c3)nc2C)cc1OC	16.5
COc1ccc(-c2nc(NCC3CCN(Cc4cccc(C)c4)CC3)c3ccccc3n2)cc1	-36.0
CSc1ccccc1CN1CCCC(O)(CO)CC1 (stereo not given)	1.5
O=C(Cn1cnc2ccccc21)Nc1nnc(CCc2ccccc2)s1	-6.9
COCCC(=O)c1nc(-c2cn(CCOC)cn2)n2ccccc12	-44.4
Cc1ccc(S(=O)(=O)N(C)c2cncc(C(=O)N3CCN(c4cccc(C)c4C)CC3)c2)cc1	-43.1
CCn1nc(C(=O)N2CCNCC2C(=O)NC2CC2)cc1C (stereo not given)	-1.4
N#C[C@H]1[C@@H](c2ccc(-c3cccnc3)cc2)[C@@H](CO)N1C(=O)Nc1ccc(F)cc1	-68.7
Cc1c(C(=O)CSc2nnnn2-c2ccccc2)c2ccccc2n1C	0.4
COc1cc(C(=O)Nc2ccc(-n3ccnc3C(C)C)cc2)nc(OC)n1	-28.9
O=C(NCCc1csc(-c2ccc(Cl)cc2)n1)C(=O)Nc1ccc(F)cc1	47.9
COc1ccc(S(=O)(=O)Nc2ccc3c(c2)OC[C@@H](C)NC[C@H](C)[C@@H](OC)CN(C)C3=O)cc1	71.3
O=S(=O)(c1cccs1)N1CCC2(CC1)NCCN=C2NCc1ccc(C(F)(F)F)cc1	-8.2
Cc1ccc2[nH]cc(CCN3CC(C(=O)Nc4nnc(CC(C)(C)C)s4)CC3=O)c2c1 (stereo not given)	183.4
COC(=O)[C@@H]1C[C@@H](NC(=O)c2ccc3c(c2)nnn3C)CN1C	10.5
CCc1ccc(CNC(=O)c2nc(Nc3ccccc3)c3ccccc3n2)cc1	-23.5
N#C[C@@H]1[C@@H](c2ccccc2-c2ccccc2)[C@H](CO)N1C(=O)Cc1ccncc1	-25.9
Cc1c[nH]c(CNC(=O)C2CCCN2C(=O)C2CCCCC2)c(C)c1=O (stereo not given)	-25.3
c1ncn(Cc2cn3c(n2)CN(Cc2ccoc2)CC3)n1	11.4
COC(=O)c1cc(C)nc2c1c(=O)n(Cc1nc(-c3cccc(OC)c3OC)oc1C)c(=O)n2C	-22.1

Reprinted at random: 3 records from the list
SMILES	Tgondii IFNg
COc1ccc(NC(=O)C(=O)NCCc2sc(-c3cccc(F)c3)nc2C)cc1OC	16.5
CCn1nc(C(=O)N2CCNCC2C(=O)NC2CC2)cc1C (stereo not given)	-1.4
COC(=O)[C@@H]1C[C@@H](NC(=O)c2ccc3c(c2)nnn3C)CN1C	10.5

(listing goes on)
SMILES	Tgondii IFNg
CO[C@H](C(=O)NC1CCN(Cc2cccc(O)c2)CC1)c1ccccc1	-5.5
COc1ccc(N2CC3(CCN(C(=O)COc4ccccc4)C3)CC2=O)cc1 (stereo not given)	-62.7
O=C1CCc2cc(NC(=O)c3cc(-c4ccccc4)nc4ccccc34)ccc2N1	-32.2
c1ccc2[nH]c(SCCN3CCOCC3)nc2c1	41.2
CC1CCN(c2ncnc3c2cnn3CC(=O)Nc2cccc(C(F)(F)F)c2)CC1	-72.5*
COC(=O)c1sc(C(C)(C)C)cc1NC(=O)c1nccnc1C(=O)O	44.4
CCC1CN(C(=O)c2ccc(-c3cccc4c3OCC4)nc2)CCN1C(C)C (stereo not given)	3.0
COc1ccc(NC2=NC(c3ccc(Cl)cc3)n3c(nc(C)cc3=O)N2)cc1 (stereo not given)	-85.5*
Cc1cccc(N2CCN(C(=O)CCC3Nc4c5ccccc5nc(=S)n4C3=O)CC2)c1C (stereo not given)	4.1
CCc1nc(-c2nccn2CC2CC(=O)N(CC)C2)c(C)[nH]1 (stereo not given)	-45.6
Cc1occc(=O)c1OCc1ccc(Cl)cc1	-8.6
CC=Cc1ccc2n(c1=O)C[C@H]1[C@H](CO)[C@@H](C(=O)N(C)C)N(C(=O)CC)[C@@H]21 (mixture of isomers)	3.4
CN(C)C(=O)C[C@H]1CC[C@@H]2[C@H](COC[C@H](O)CN2C(=O)C2CCOCC2)O1	-17.4
CCc1cn[nH]c1C1CCCN(C(=O)c2nc(C)n3c2C(=O)N(CC)CC3)C1 (stereo not given)	-2.3
Cc1ccc(-c2nc(CCNC(=O)C(=O)Nc3c(C)cccc3C)cs2)cc1	-50.1
N#C[C@@H]1[C@H](c2ccccc2C2=CCCCC2)[C@@H](CO)N1S(=O)(=O)c1ccccc1	-9.5
CC12CCC(C(=O)N(CCC#N)CCC#N)(CC1=O)C2(C)C (stereo not given)	-8.3
CCN1CCC2(CC1)OC(=O)C(C)=C2C(=O)Nc1ccccc1C(=O)OC	-4.3
C=CCNc1ccccc1C(=O)N(C)CC1CC(=O)N(C(C)(C)C)C1 (stereo not given)	-46.1
Cc1oc(-c2cccc(Cl)c2)nc1Cn1nnc(-c2nc(-c3ccc(F)cc3)no2)c1C	30.7
Cc1ccnc(N2CCC(CO)(Cc3cccc(F)c3)CC2)n1	-10.1
CNC(=S)N1N=C(c2c(-c3ccccc3)c3cc(Cl)ccc3[nH]c2=O)CC1c1ccccc1OC (stereo not given)	-39.6
OCCC1CN(C2CCN(Cc3ccccc3)CC2)CCN1Cc1ccccc1F (stereo not given)	-32.0
Cn1cc(N2CCC3(CCN(C(=O)c4cccn4C)C3)C2=O)cn1 (stereo not given)	-0.6
C=CCn1c(CNC(=O)c2ccco2)nnc1SCc1nnc(-c2ccccc2)o1	15.0
O=C(NCCc1csc(-c2ccccc2)n1)C1CCN(S(=O)(=O)c2ccc(Cl)s2)CC1	-36.1
Cn1nc(C(F)(F)F)cc1C(=O)N1CCCC1c1cccc(F)c1 (stereo not given)	-31.2
CCn1c(C2CCNCC2)nn(CCn2cncn2)c1=O	5.7
CNC(=O)c1cc(=O)n(CC(=O)Nc2cccc(C(F)(F)F)c2)c2ccccc12	-4.9
O=C1NC(Cc2ccccc2)(C2CCNCC2)C(=O)N1Cc1nccs1 (stereo not given)	9.2
CN(Cc1n[nH]c2c1CCCCC2)C(=O)c1cn[nH]n1	-5.0
O=C1NCC(=O)N2CCN(Cc3coc4ccccc4c3=O)CC12 (stereo not given)	21.2
CN(C)CC1(O)CCN(C(=O)c2ccc(CO)o2)C1 (stereo not given)	2.2
CN(C)CCN1C(=O)CCC2C1CCN2C(=O)Cc1ccc(F)cc1 (stereo not given)	-4.7
Cc1ccc(S(=O)(=O)N2C(=S)SCC2(C)C)cc1	-5.6
CC(=O)N1[C@H](CN2CCCC2)C[C@H]2CN(Cc3ccc(C)o3)CC[C@H]21	-79.9*
Cc1ccc(-c2noc(-c3nnn(Cc4nc(-c5ccccc5)oc4C)c3C)n2)cc1C	-3.9
CN(Cc1ccccc1)C1CCN(C(=O)c2ccco2)C(C(=O)O)C1 (stereo not given)	-6.9
CCOC(=O)c1nn(CCc2ccccc2)c2c1CN(C(=O)C1=C(C)OCCO1)CC2	3.4

The list is partial (hit frequency here may not be typical).
